Assay outcomes as filed in PubChem.
TRPV1 PAM – HTS Assay for Compounds that Act as Potentiators of the Vanilloid Receptor 1 | 320,000 tested, 0.02% active | Transient receptor potential cation channel subfamily V member 1 (Homo sapiens), Q8NER1 | TRPV1-expressing cells, Fluo-8 calcium influx, capsaicin EC20 potentiation; host cell line not named in the record; control for the full effect not named in the record | potentiation, % at 8.33 µM; active means potentiation above 80%; inconclusive means 30% to 80%; inactive means below 30%; further: 0% is about no effect
Target sequence (Q8NER1 whole entry, looked up): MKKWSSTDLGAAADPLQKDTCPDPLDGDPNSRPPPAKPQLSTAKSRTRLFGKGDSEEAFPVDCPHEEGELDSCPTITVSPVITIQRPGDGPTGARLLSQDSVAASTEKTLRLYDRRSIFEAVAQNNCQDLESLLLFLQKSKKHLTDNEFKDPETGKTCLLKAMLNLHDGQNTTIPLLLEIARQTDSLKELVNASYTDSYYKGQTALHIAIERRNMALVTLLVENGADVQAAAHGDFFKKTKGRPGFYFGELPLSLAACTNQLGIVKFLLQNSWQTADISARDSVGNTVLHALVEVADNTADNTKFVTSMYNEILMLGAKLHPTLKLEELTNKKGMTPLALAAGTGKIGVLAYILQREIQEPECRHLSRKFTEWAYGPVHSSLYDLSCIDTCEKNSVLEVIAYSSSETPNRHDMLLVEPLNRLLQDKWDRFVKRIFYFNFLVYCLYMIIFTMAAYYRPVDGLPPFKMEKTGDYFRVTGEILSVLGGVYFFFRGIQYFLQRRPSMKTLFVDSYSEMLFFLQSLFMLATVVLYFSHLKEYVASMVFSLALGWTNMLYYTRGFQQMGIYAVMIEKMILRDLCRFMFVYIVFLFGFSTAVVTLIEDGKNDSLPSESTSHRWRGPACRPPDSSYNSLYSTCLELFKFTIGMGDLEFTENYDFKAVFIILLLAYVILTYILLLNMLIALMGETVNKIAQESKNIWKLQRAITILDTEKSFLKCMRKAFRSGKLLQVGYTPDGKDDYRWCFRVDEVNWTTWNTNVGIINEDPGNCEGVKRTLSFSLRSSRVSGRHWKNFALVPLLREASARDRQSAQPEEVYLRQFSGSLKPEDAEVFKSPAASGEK
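Cells expressing TRPV1 were dye-loaded with Fluo-8 and read kinetically: 10 s baseline, 3 min after compound (agonist portion), then 2 min after EC20 capsaicin (allosteric enhancer portion). Calcium-bound dye fluorescence at 480/520 nm.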
Sfp inh – qHTS Assay for Inhibitors of Bacillus subtilis Sfp phosphopantetheinyl transferase (PPTase). 4'-phosphopantetheinyl transferase ffp (Bacillus subtilis), Q9F4F7. 310,000 tested, 3.5% active. Potency, µM, for the others: max response, negative = inhibition, hits mostly inhibitors. Biochemical Sfp PPTase activity, qHTS; active means well fitted inhibition curve with a large enough effect; inconclusive means small, poorly fitted or top-dose-only effect, or another doubt; inactive means no such curve, though single readings can be large or run the other way;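 further: the enzyme is Sfp with the accession as filed and its product quenches rhodamine fluorescence; potency means the concentration at half of the fitted maximal effect; 0% = enzyme reaction without inhibitor and -100% = no enzyme wells; top concentration of the series not given in the record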
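Fluorescence-quenching assay with 15 nM Sfp, 5 uM rhodamine-CoA and 12.5 uM BHQ-2-labelled ybbR peptide in pH 7.6 Hepes/MgCl2 buffer. Enzyme was pre-incubated with compound for 15 min at room temperature. Rate was taken from the 30-min fluorescence change (525/598 nm).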
TRPML1 inh – qHTS for Inhibitors of the Human Mucolipin Transient Receptor Potential 1 (TRPML1). Mucolipin-1 (Homo sapiens), Q9GZU1. TRPML1-inducible cells, Ca2+ dye fluorescence, FDSS; hits give low values; inhibition of EC80 agonist-evoked calcium signal. activity change, negative = inhibition, % (no concentration beside the values). 390,000 tested, 0.02% active. AID 624415, 2012; in the data active means activity change below about -50%; inconclusive means about -30% to -50%; inactive means above about -30%;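 further: stimulus is agonist 54-4 at its EC80 concentration; on the % scale 0 is the no-effect control and ±100 the full control effect; compound concentration not given in the record; the text of the record puts the active cut at -80%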
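Tet-induced TRPML1-DL cells loaded with Ca8 no-wash calcium dye were read kinetically on FDSS. Compound addition was followed by EC80 agonist 54-4 (4 uM final); inhibition was read over 110 s.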
ClpP mod – qHTS Assay for Activators of ClpP. Potency, µM (doses to about 57.5 µM), inactives show top-dose activity change, negative = active. purified B. subtilis ClpP, FRET peptide cleavage, 20 min. 340,000 tested, 1.9% active. AID 651965, 2013. ATP-dependent Clp protease proteolytic subunit (Bacillus subtilis (strain 168)), P80244; active = well fitted falling curve with a large enough effect; inconclusive = small, poorly fitted or top-dose-only effect; inactive = no such curve, though single readings can be large or run the other way; further: potency means the concentration at half of the fitted maximal effect; the source files actives as falling curves though it sought activators and does not explain the sign; nearly all actives have a fitted effect of over 65% in size; many hits overshoot -100%
Target sequence (P80244 whole entry, looked up): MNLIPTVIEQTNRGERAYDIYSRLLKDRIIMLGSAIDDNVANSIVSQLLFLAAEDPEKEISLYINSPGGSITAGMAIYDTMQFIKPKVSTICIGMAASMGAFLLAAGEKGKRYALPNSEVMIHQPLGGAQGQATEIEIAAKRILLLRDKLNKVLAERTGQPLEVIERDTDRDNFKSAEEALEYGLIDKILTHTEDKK
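FRET quenching reversal measured ClpP activation: 10 microg/mL B. subtilis ClpP at pH 8 with the FRET-FV decapeptide, read at 430 nm after 320 nm excitation. The 20-min minus 0-min signal was scaled between DMSO/no-enzyme wells and ADEP (5.8 microM final).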
TRPML1 ag – qHTS for Agonists of the Human Mucolipin Transient Receptor Potential 1 (TRPML1). activation, % (concentration not given with the values). Mucolipin-1 (Homo sapiens), Q9GZU1. 410,000 tested, 0.12% active. TRPML1-expressing cells, Ca2+ dye fluorescence, FDSS; host cell line not named in the record; reference of the full effect not given here; in the data active = activation above about 50%; inconclusive = about 30% to 50%; inactive = below about 30%; further: 0% is about no effect; the text of the record puts the active cut at 80%
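Cells: TRPML1-DL, 1X Tet inducer, ~16 h at 37 degrees C/5% CO2. Dye: ABD Ca8 no-wash + quencher, 45-90 min RT. Read: 10 s baseline, compound add, 110 s agonist phase; 54-4 EC80 (4uM final), 110 s antagonist phase.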
PINK1 modulator – A Quantitative High throughput Screen to Identify Chemical Modulators of PINK1 Expression | PINK1 immunofluorescence, high-content cytometry, 24 h | Potency, µM (doses to about 76.6 µM), without a hit: top-dose activation (PINK1 increase), most hits filed as activators | 410,000 tested, 0.2% active | AID 624263, 2012; active = well fitted activation curve with a large enough effect; inconclusive = small, poorly fitted or top-dose-only effect; inactive = flat fitted curve, though single readings scatter; cell line not stated here;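 further: potency means the concentration at half of the fitted maximal effect; % of control where 0% means no effect; nearly all actives have a fitted effect of over 65% in size; a mitochondrial uncoupler was the plate control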
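Stable cell line treated 24 h with compounds at 5 concentrations (CCCP controls), then fixed and immunostained for PINK1 plus nuclear and cell stains; PINK1 immunofluorescence quantified by laser-scanning microplate cytometry.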
Menin MLL FP FL – qHTS Assay for Inhibitors Targeting the Menin-MLL Interaction in MLL Related Leukemias: Competition With Fluorescein Labeled MLL-derived Peptide. Fluorescence polarization, fluorescein-MLL peptide displacement from menin. FP activity change, % at 61.4 µM. 290,000 tested, under 10 active. AID 1766, 2009; inconclusive = falling polarisation curve, or a change in total fluorescence; inactive = total fluorescence flat and polarisation flat or rising; no compound was filed as active; the % refers to the polarisation; negative = inhibition;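 further: % of control where 0% means no effect; inhibitors lower the polarisation; unlabelled MLL peptide was the positive control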
Numbers without * were called inactive; ? = inconclusive; . = not tested or not shown; [ ] = remark or other dose.

Compound	TRPV1 PAM	Sfp inh	TRPML1 inh	ClpP mod	TRPML1 ag	PINK1 modulator	Menin MLL FP FL
O=C(/C=C/Sc1ccccc1)c1ccc(Cl)cc1	-6	-7%	8	2.0%	-0.4	8.7%[38.3 µM]	1.9
Cc1[nH]c(=O)c(C(=O)c2cc(Cl)ccc2O)cc1C(=O)O	7	-7%	10	.	-0.4	1.5%	2.9
O=C(c1ccco1)N1CCN(C2=NS(=O)(=O)c3ccccc32)CC1	7	22%	10	1.2%	-0.7	3.0%	-0.2
COc1cc(OC)cc(C(=O)N[C@H](C(=O)NC2CCCc3ccccc32)C(C)C)c1 (stereo partly drawn)	.	.	-4	.	1.0	16%	.
CCc1nnc(NC(=O)c2ccc3ncsc3c2)s1	-16	1%	17	2.7%	1.2	1.3%	0.2
COc1ccc(-c2ccc(-c3nc4c(c(=O)[nH]c(=O)n4Cc4ccccc4)n3C)o2)c([N+](=O)[O-])c1	5	10µM*	7	.	0.8	5.1%	-4.6
CSC1=C(C#N)C(c2ccc(C)s2)CC(=O)N1 (stereo not drawn)	8	4%	4	1.6%	0.1	25%[38.3 µM]	1.7
C#CCOC(=O)CCC(=O)Nc1cc(OC)nc(OC)n1	-1	26%	.	.	.	.	-0.4
COc1ccc(-n2c(C)cc(/C=C3/SC(=S)N(C)C3=O)c2C)cc1	4	1%	-6	1.5%	0.8	10%	?
CCNC(=S)N(CCc1c(C)[nH]c2ccccc12)Cc1cccnc1	1	-1%	-9	-1.6%	1.7	3.8%	11
CC(=O)Nc1ccc2c(c1)C(=Nc1ccc(C)cc1)c1ccccc1-2	.	.	-4	1.7%	-0.2	0.9%	.
CCOc1ccc(-n2c(SCC(=O)NC(C)CC)nc3n[nH]c(C)c3c2=N)cc1 (stereo not drawn)	0	18%	43	?	-0.3	?	-0.4
CC1CCN(S(=O)(=O)c2ccc(C(=O)N3CCCC(C(F)(F)F)C3)cc2)CC1 (stereo not drawn)	-18	.	6	.	1.6	-0.1%	.
COc1ccc(C2(C)CC(C)(C)Nc3ccccc32)cc1 (stereo not drawn)	27	3%	38	.	2.2	17%	3.7
O=C(NS(=O)(=O)Oc1ccc(Cl)cc1)OC[C@@H]1CCCN2CCCC[C@H]12	-9	5%	-11	1.0%	-0.5	3.8%	-2.0
COCCCNC(=O)c1ccc(C(=O)NCCCOC)cc1	-5	18%	-9	-0.4%	-0.5	-1.7%[38.3 µM]	4.0
O=C(CN1CCN(C(=O)c2ccco2)CC1)Nc1cccc(S(=O)(=O)N2CCCC2)c1	6	.	18	-1.3%	-0.1	-0.3%	.
CC(C)c1nc2oc3c(NCCO)ncnc3c2c2c1COC(C)(C)C2	-7	25%	13	3.9%	0.6	-0.5%	-0.7
COc1ccc(CN2C(=O)N(c3ccc(OC)cc3)C(=O)C2CC(=O)Nc2ccccc2)cc1 (stereo not drawn)	-4	17%	3	0.4%	0.2	-0.6%	3.5
CSc1ncc(Cl)c(C(=O)Nc2cccc3ccccc23)n1	3	3%	?	-0.6%	1.0	1.9%	-0.3
COc1ccc(-c2nnc(SCC(=O)Nc3cccc(Cl)c3C)nc2-c2ccc(OC)cc2)cc1	.	.	12	-0.2%	2.7	?	.
CC(=O)c1c(C)n([O-])c2cc(C)ccc2[n+]1=O	0	13%	1	-7.7%	-0.7	1.8%	1.6
Cc1cccc(C)c1NC(=O)CNC(=O)c1ccc(N2CCCC2=O)cc1	-7	.	-1	-1.7%	3.0	1.7%	.
CCOCCn1c(CN2CCC(C)CC2)nc2c1c(=O)n(C)c(=O)n2C	7	8%	.	.	.	.	0.3
Cc1cc(OCCCn2cnc3ccccc3c2=O)ccc1[N+](=O)[O-]	-3	5%	17	1.1%	0.7	-1.8%	1.7
CC(C)(C)c1ccc(-c2nnc(SCC(=O)O)n2N)cc1	-5	16%	-12	-8.2%	-0.5	-0.6%	2.9
CC(Sc1nc(N)cc(N)n1)C(=O)NCC1CCCO1 (stereo not drawn)	-5	.	10	0.8%	-0.3	0.1%	.
CCCNC(=O)C1(C)CCCN(Cc2ccc(Cl)cc2)C1 (stereo not drawn)	.	.	-6	2.3%	-0.4	0.1%	.
CC(C)Oc1ccc(C(CC(=O)O)NC(=O)CSc2ncn[nH]2)cc1 (stereo not drawn)	.	11%	1	-1.0%	0.5	0.3%	2.9
CCc1ccc(S(=O)(=O)c2cn(CC(=O)Nc3ccc(F)c(Cl)c3)c3ccccc3c2=O)cc1	.	.	10	0.2%	-0.1	1.4%	.
COc1ccccc1CNc1cc(-c2ccccc2)nc2nncn12	.	.	24	-21%	0.8	1.7%	.
COc1ccccc1Nc1sc(C(=O)c2ccc(F)cc2)c(N)c1S(=O)(=O)c1ccc(C)cc1	.	.	-10	-13%	3.3	-1.2%	.
COCCCNC(=O)CN(c1cc(Cl)ccc1OC)S(C)(=O)=O	1	21%	6	.	-0.8	0.1%	-3.6
O=S(=O)(c1ccc(Cl)cc1)n1cccn1	7	-5%	3	.	-0.2	2.5%	-1.8
CNC(=O)CC1C(=O)N(C)C(=S)N1NC(=O)c1ccccc1 (stereo not drawn)	-18	2%	19	0.9%	-0.5	-1.8%	-1.4
CCOC(=O)c1c(C)n(C)c2ccc(O)c(CN3CCCCC3)c12	2	2%	-5	0.3%	-0.3	0.3%	-0.2
O=C(CCc1ccccc1)Nc1ccc(NS(=O)(=O)c2ccccc2)cc1	15	7%	22	-0.2%	0.0	2.5%	3.6
O=C(CCc1ccccc1)NNC(=O)c1ccco1	10	7%	-7	-1.5%	0.1	-0.4%	5.3
CCCCCOC(=O)NCCOC(=O)Nc1ccc(C(=O)OCC)cc1	5	6%	-1	3.2%	0.2	15%	-0.9
CC1=C(C(=O)OC(C)C)C(C)NC(=O)N1 (stereo not drawn)	-5	19%	-7	1.1%	-0.1	-1.6%	-0.9
CCOCc1nnc(NC(=O)c2ccco2)s1	-2	9%	-5	-0.8%	-0.5	-1.0%	1.3
CN(C)c1ccc(-c2nnn(CC(=O)NCc3ccc4c(c3)OCO4)n2)cc1	12	15%	5	?	-0.5	2.4%	0.3
CCOc1ccc(S(=O)(=O)Nc2ccn(C)n2)cc1	12	.	0	1.0%	-0.1	1.1%	.
Cc1nn(Cc2noc(C(=O)NCC3CCCO3)n2)c(C)c1Br (stereo not drawn)	-4	-2%	-23	2.5%	-0.5	3.3%	.
CCN1CCN(c2cc(C)c3cc(NC(=O)c4ccc5c(c4)OCO5)ccc3n2)CC1	-15	2%	0	-8.9%	-1.3	3.8%	-5.4
CCNC(=O)C1(C)CCCN(C(=O)c2cc(C)n(C(C)(C)C)n2)C1 (stereo not drawn)	.	.	.	0.7%	-0.5	0.5%	.
CC(C)(C)C(=O)N(Cc1nc2ccccc2c(=O)[nH]1)Cc1cccs1	-41	0%	19	-0.8%	0.7	-4.4%[38.3 µM]	1.9
CCc1nnc(SCC(=O)N(CC)c2ccccc2)c2cc3oc(C)cc3n12	.	.	-18	0.3%	-1.1	0.0%	.
COc1ccccc1NC(=O)CC(=O)CSc1nnc(-c2ccc(C)cc2)n1-c1ccccc1	21	9%	-1	-2.0%	-0.4	0.1%	6.7
O=C(Cn1c(=O)c2cccn2c2cccnc21)NCc1cccc(F)c1	.	.	-6	-30%	-0.7	0.0%	.
Cc1ccc(-c2noc(CCC(=O)N3CCCC3)n2)cc1	0	8%	-8	0.9%	0.0	2.0%	6.3
C=CCn1c(SCC(=O)NC(=O)NCc2ccco2)nc2sc(C)c(C)c2c1=O	13	9%	1	-1.7%	1.3	9.6%	-1.2
O=C(NC1CCCC1)c1ccc(CS(=O)(=O)Cc2ccccc2F)o1	21	1%	-10	-0.4%	1.2	-1.1%	.
COc1ccc(NC(=O)C(c2cc3c(cc2[N+](=O)[O-])OCO3)N(C)C)cc1 (stereo not drawn)	-4	-16%	6	-5.9%	-1.6	-0.9%	1.1
COc1ccccc1-n1cnc2cc(C(=O)NC3CCCC3)ccc21	3	14%	3	-4.8%	0.1	-3.8%[38.3 µM]	-1.2
CC(C)C[C@H](NC(=O)[C@@H]1Cc2c([nH]c3ccccc23)C2c3ccccc3C(=O)N21)C(=O)NCC1CCCO1 (stereo partly drawn)	23	6%	.	-16%	.	2.2%	-0.5

Further results
Compound	TRPV1 PAM	Sfp inh	TRPML1 inh	ClpP mod	TRPML1 ag	PINK1 modulator	Menin MLL FP FL
O=C(N/N=C/c1ccc(O)cc1)c1cc(-c2ccccc2)nc2ccccc12	8	1%	.	109%	.	3.4%	5.8
O=C(NNC(=O)C1CCC1)c1cccc(Cl)c1	0	.	2	-0.4%	-0.2	-1.1%	.
CCOCCn1c(=NC(=O)c2cc(Cl)sc2Cl)sc2cc(S(N)(=O)=O)ccc21	3	18%	.	.	.	.	9.3
Cc1ccc(Sc2c(C)nn(C(C)(C)C)c2OC(=O)C(C)(C)C)cc1	.	.	1	1.5%	-0.2	19%	.
O=C(Nc1ccc2c(c1)OCO2)Nc1ccccn1	-1	5%	-5	-2.3%	0.3	1.3%	1.0
COc1ccc(S(=O)(=O)N(CC(=O)NCc2ccccn2)c2ccc(Cl)cc2)cc1	-8	18%	-9	.	0.2	-0.1%	-12
Cc1cccc(N2CCN(c3ccc(NC(=O)c4ccccc4)cc3C(=O)O)CC2C)c1 (stereo not drawn)	.	.	-29	1.5%	2.1	4.2%	.

The order is random. Share with any hit: about 4.4%.
